Screening results deposited in PubChem by National Center for Advancing Translational Sciences (NCATS).
Lassa entry inh – inhibitors of Lassa virus binding or cell entry; Potency, µM (highest dose often 37.9 µM), without a hit: top-dose activity change, negative = inhibition, actives largely listed as inhibitors; hit rate 1.2% among 300,000; Lassa virus pseudotype entry inhibition, cell reporter; control for the full effect not named in the record; active means well fitted inhibition curve with a large enough effect; inconclusive means small, poorly fitted or top-dose-only effect, or effect the other way; inactive means flat fitted curve, though single readings scatter; tested in HEK293 cells; further: on the % scale 0 is the no-effect control and ±100 the full control effect; nearly all actives have a fitted effect of over 50% in size; luciferase read-out
RE007 growth inh – less growth of the S. pombe RE007 Vpr strain; S. pombe RE007 Vpr strain, BacTiter-Glo ATP luminescence, 24 h; control for the full effect not named in the record; Potency, µM (highest dose often 92.2 µM), without a hit: top-dose activity change, negative = less growth; hit rate 0.21% among 360,000; AID 651644; active = well fitted falling curve with a large enough effect; inconclusive = small, poorly fitted or top-dose-only effect; inactive = no such curve, though single readings can be large or run the other way;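 further: on the % scale 0 is the no-effect control and ±100 the full control effect; nearly all actives have a fitted effect of over 50% in size; the assay follows cell death caused by Vpr and the record does not say whether a fall means rescue or toxicity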
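Fission yeast RE007 carrying one integrated HIV-1 vpr copy, seeded at OD 0.01 in PMG+AL medium with 23 nL pinned compound. Grown 24 h at 30 degrees; viability read by BacTiter-Glo luminescence after 5 min.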
SARS PLpro yeast – SARS-CoV PLP inhibition in yeast; S. cerevisiae expressing SARS-CoV PLpro, growth rescue; control for the full effect not named in the record; Potency, µM (series often up to 32.9 µM), for inactives: top-dose activity, positive = growth rescue; hit rate 0.19% among 330,000; AID 485353; active means well fitted rising curve with a large enough effect; inconclusive means small, poorly fitted or top-dose-only effect; inactive means no such curve, though single readings can be large or run the other way; further: 0% is about no effect; nearly all actives have a fitted effect of over 55% in size; growth read by luminescence after 48 h
NS1 inh – inhibitors of influenza NS1 protein function. S. cerevisiae slowed by influenza A NS1, growth recovery by OD600. Potency, µM (highest dose often 46.1 µM), for inactives: at the top dose activity, positive = more growth. hit rate 0.4% among 270,000; active means well fitted rising curve with a large enough effect; inconclusive means small, poorly fitted or top-dose-only effect; inactive means no such curve, though single readings can be large or run the other way; further: nearly all actives have a fitted effect of over 50% in size
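Growth recovery, yeast-based: influenza A NS1 expressed in S. cerevisiae causes slow growth, and suppressors are detected by OD600. The parent strain without NS1 is used as positive control.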
Cruzain Triton – blocks cruzain activity in presence of Triton detergent; P25779; purified cruzain, Z-FR-AMC fluorescence, 0.01% Triton; Potency, µM, for the others: max response, negative = inhibition, hits mostly inhibitors; hit rate 0.43% among 200,000; AID 1478;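 further: plate controls were neutral wells for no effect and buffer without enzyme for full effect; nearly all actives have a fitted effect of over 40% in size; top concentration of the series not given in the record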
Target sequence (P25779 123-467 limits assumed): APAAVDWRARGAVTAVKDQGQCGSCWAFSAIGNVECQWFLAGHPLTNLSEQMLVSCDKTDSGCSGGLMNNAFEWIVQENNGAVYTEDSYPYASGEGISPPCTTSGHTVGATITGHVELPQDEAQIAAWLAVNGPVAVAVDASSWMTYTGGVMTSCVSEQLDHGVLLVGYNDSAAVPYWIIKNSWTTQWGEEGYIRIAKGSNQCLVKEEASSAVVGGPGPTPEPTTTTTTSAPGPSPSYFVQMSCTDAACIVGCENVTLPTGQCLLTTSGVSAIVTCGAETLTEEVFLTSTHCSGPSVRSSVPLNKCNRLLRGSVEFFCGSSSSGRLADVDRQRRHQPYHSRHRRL
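Compounds were screened in titration against cruzain (1.5 nM) with 0.01% Triton X-100 to counter colloidal aggregation. Activity was the AMC fluorescence increase over 60 s after adding 2 uM Z-FR-AMC at pH 5.5.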
StopGo reporter – FMDV 2A StopGo reporter, luciferase signal; AID 1159524; Potency, µM (titrated, usually from 57.9 µM), for inactives: at the top dose signal change, negative = less light; hit rate 1.2% among 410,000; human cells with a luciferase reporter of 2A StopGo recoding; control for the full effect not named in the record; active = well fitted falling curve with a large enough effect; inconclusive = small, poorly fitted or top-dose-only effect; inactive = no such curve, though single readings can be large or run the other way; tested in HEK293T cells; further: on the % scale 0 is the no-effect control and ±100 the full control effect; nearly all actives have a fitted effect of over 45% in size; luciferase light after 4 h
Cruzain noTriton – inhibitors of Trypanosoma cruzi cruzain without detergent. purified cruzain, Z-FR-AMC fluorescence, no detergent. AID 1476. P25779. hit rate 2.3% among 200,000. Potency, µM, for inactives: max response, negative = inhibition, hits mostly inhibitors;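 further: plate controls were enzyme without inhibitor for no effect and buffer without enzyme for full effect; nearly all actives have a fitted effect of over 40% in size; top concentration of the series not given in the record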
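Purified cruzain at 1.5 nM, pre-incubated 15 min with compound at room temperature in 100 mM sodium acetate pH 5.5, 5 mM DTT, 0.00005% Triton X-100. Reaction started with 2 uM Z-FR-AMC; AMC fluorescence increase over 60 s gives rate.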
Marburg entry inh – blocks Marburg virus binding to or entry into cells; Marburg virus pseudotyped entry inhibition, cell reporter; control for the full effect not named in the record; about a third of the inactives were read at about 46 µM; Potency, µM (top dose mostly 37.8 µM), without a hit: at the highest dose activity change, negative = inhibition, actives largely listed as inhibitors; hit rate 1.8% among 300,000; AID 540276; active = well fitted inhibition curve with a large enough effect; inconclusive = small, poorly fitted or top-dose-only effect, or effect the other way; inactive = flat fitted curve, though single readings scatter; tested in HEK293 cells; about a fifth of its hits are not listed in these tables; further: on the % scale 0 is the no-effect control and ±100 the full control effect; luciferase read-out
Numbers without * were called inactive; ? = inconclusive; . = not tested or not shown; [ ] = remark or other dose. Unless noted, the call rests on the fitted dose curve; in most records, active means well fitted curve in the direction sought with a large enough effect; inconclusive means small, poorly fitted or top-dose-only effect, or another doubt; inactive means no such curve, though single readings can be large; an effect the other way counts as inactive or inconclusive. Potency means the concentration at half of the fitted maximal effect.

compound | RE007 growth inh | SARS PLpro yeast | Lassa entry inh | StopGo reporter | Cruzain Triton | Cruzain noTriton | Marburg entry inh | NS1 inh
CC/C(=N\NC(=O)c1ccc(N(C)C)cc1)c1ccccc1 | 1% | -4% | 3% | 70%[activator] | -13% | -4% | 2% | 8%
Cc1noc(C)c1COc1ccc(C(=O)Nc2cccnc2)cc1 | -12% | -3% | 2% | -13% | . | . | 25%[46.1 µM] | .
COc1cccc(-c2noc(-c3ccoc3C)n2)c1 | -24% | -2% | . | 20% | . | . | 10%[46.1 µM] | .
CC1CC(C)CN(C(C)C(=O)Nc2cc(S(=O)(=O)N3CCCCC3)ccc2Cl)C1 (stereo not given) | 2% | 3% | ? | -24% | . | . | -11%[46.1 µM] | .
CCOC(=O)c1ccc(Nc2cc(C)nc3nc(C)nn23)cc1 | -7% | -5% | -18% | -18% | -3.0% | -2% | -3% | -28%
CCc1ccc(NC(=O)C[n+]2cc(-c3ccc(C)cc3)n3c2CCC3)cc1 | 17% | -1% | . | ? | . | . | . | -2%
Cc1nn(C)cc1S(=O)(=O)Nc1cccc(Cl)c1 | 18% | -3% | -14% | 26% | . | . | -16%[46.1 µM] | -11%
Cc1ccc(C(=O)NCc2ccc(F)cc2)s1 | 2% | . | 22% | 60%[activator] | . | . | 27% | .
CSc1ccc(/C=C/C(=O)OCC(=O)N2CCN(c3ccccc3)CC2)cc1 | 11% | . | -1% | 2% | . | . | 5%[46.1 µM] | .
CN(CC(=O)Nc1ccccc1Cl)C(=O)COc1cccc2c1OC(C)(C)C2 | -11% | 0% | -18% | -7% | . | . | 11%[46.1 µM] | .
O=C(O)C(c1ccccc1)N1C(=O)c2ccccc2C1=O (stereo not given) | 7% | -1% | . | 24% | . | . | . | 21%
O=C(COC(=O)c1ccccc1SCC(=O)N1CCCC1)Nc1ccccc1 | 1% | -5% | ? | 2% | . | . | 17%[46.1 µM] | -4%
CC(C)Cc1cc(C(=O)NCc2cccnc2)no1 | -4% | -3% | . | 58%[activator] | 1.5% | 0% | . | -92%
CC(NC(=O)C1CCCN1S(=O)(=O)c1ccccc1)c1ccccc1 (stereo not given) | -27% | 13% | -14% | 5% | . | . | -3% | -3%
Cc1ccc(C(=O)N(C)Cc2ccccc2)cc1S(=O)(=O)N1CCOCC1 | 4% | 4% | -19% | 29% | . | . | 2% | -1%
CC(=O)c1sc(NC(=O)CSC(C)C(=O)Nc2cc(C)on2)nc1-c1ccccc1 (stereo not given) | 0% | 1% | ? | -8% | . | . | 18% | .
COc1ccc(N(C(=O)c2ccccc2)S(=O)(=O)c2ccc3c(c2)n(C)c(=O)n3C)cc1 | . | . | -20%[46.1 µM] | -13% | 0.0% | 3% | 5%[46.1 µM] | .
COc1ccc(Nc2ccc(C(F)(F)F)cc2[N+](=O)[O-])cn1 | -8% | -4% | . | ? | . | . | . | 15%
O=C(CC1COc2ccccc2O1)NC1CCCCC1 (stereo not given) | 7% | -1% | 0% | 41%[activator] | 10.0% | -6% | 3% | -10%
COc1ccc(-c2onc(C)c2-c2ccc3c(c2)OCCO3)c(O)c1 | -14% | -19% | ? | -18% | . | . | ? | .
Cc1nc2ccc(S(=O)(=O)NC(C(=O)NCc3ccccc3Cl)C(C)C)cc2s1 (stereo not given) | . | . | -6%[46.1 µM] | 6% | -0.1% | 19% | -15%[46.1 µM] | .
COc1cc2c(cc1OC)CN(CC(=O)Nc1ccc3c(c1)OCO3)CC2 | -9% | 1% | -5% | -5% | 0.2% | -10% | 3% | -11%
Cc1ccc(CNC(=O)CN2C(=O)NC(C)(c3ccc(Cl)cc3)C2=O)cc1 (stereo not given) | -2% | 1% | -2%[46.1 µM] | -8% | . | . | ? | -1%
CN(c1ccc(C(=O)NCc2ccc3c(c2)OCO3)cc1)S(=O)(=O)c1ccccc1 | 14% | 0% | ? | -2% | . | . | 2%[46.1 µM] | 3%
Cc1cccc(NC(=O)c2ccccc2Br)n1 | -25% | -5% | . | 0% | 2.4% | -4% | . | -12%
O=C(CCCOc1ccc(Cl)cc1Cl)N/N=C/c1cccc([N+](=O)[O-])c1 | 6% | -1% | -4% | -8% | -4.9% | -3% | -3% | -4%
Cc1ccc2c(C(=O)CN3CCOCC3)c(C)[nH]c2c1 | -20% | 11% | -2% | 21% | 1.2% | ? | 11%[46.1 µM] | -1%
OCCN(Cc1ccccc1)CC1CC2C=CC1C2 (stereo not given) | -5% | . | -3% | 4% | 7.4% | 2% | 7% | 5%
O=S(=O)(Cc1ccccc1Cl)Nc1ccccn1 | 11% | 4% | 9% | -7% | 2.2% | 1% | 30% | 0%
CCOC(=O)c1c(NC(=O)C(C)N2CCN(S(=O)(=O)c3cccs3)CC2)sc2c1CCC(C)C2 (stereo not given) | -14% | 7% | 10% | 0% | -0.6% | 7.9µM* | ? | 4%
Cc1cc(S(=O)(=O)Nc2cc3c(cc2NCc2ccccc2)n(C)c(=O)n3C)ccc1F | . | . | 19%[46.1 µM] | 18% | -15% | -6% | 4%[46.1 µM] | .
O=C(Nc1cccnc1)c1cc(Cl)ccc1Cl | 1% | ? | . | -8% | . | . | . | -6%
CN(C(=O)CN1C(=O)c2cc(Cl)c(Cl)cc2C1=O)C1CCS(=O)(=O)C1 (stereo not given) | -8% | 3% | 2% | -12% | . | . | 0% | .
COc1ccc(NC(=O)C2CCCN(S(=O)(=O)c3c(C)n[nH]c3C)C2)cc1 (stereo not given) | 3% | 7% | -8% | -8% | -2.1% | 5% | 23%[46.1 µM] | -9%
COc1ccc(/C=C/c2nc(C#N)c(N3CCCCC3)o2)cc1OC | . | . | -30%[46.1 µM] | -4% | -13% | -4% | ? | .
O=C(O)c1ccc2nc3c(nc2c1)-c1ccccc1C3=O | -15% | -2% | -6% | 11% | . | . | -5%[14.2 µM] | .
Cc1cc2oc(C(=O)N(Cc3ccc(N(C)C)cc3)Cc3ccco3)c(C)c2cc1Cl | . | . | -27%[46.1 µM] | -4% | -5.8% | ? | -1%[46.1 µM] | .
CC(=O)Nc1ccc(Nc2nc3c(S(=O)(=O)c4cc(C)ccc4C)nnn3c3ccsc23)cc1 | . | . | -1%[46.1 µM] | -2% | -0.6% | -5% | . | .
O=C(NC1CCCCC1)c1ccc(-c2ccccc2[N+](=O)[O-])o1 | 1% | -10% | -19%[46.1 µM] | 0% | . | . | ? | -45%
N/C(=N\OC(=O)CCN1C(=O)c2ccccc2C1=O)c1ccccn1 | -20% | 0% | . | 15% | . | . | . | 1%
CCC(CC)NC(=O)c1cccc(Oc2ccccc2)c1 | 16% | 0% | -1% | 10% | . | . | -20%[46.1 µM] | .
COc1ccc(CCNC(=O)CC(C)S(=O)(=O)c2ccc3c(c2)NC(=O)CO3)cc1OC (stereo not given) | 13% | 15% | . | -11% | . | . | . | -5%
Cc1ccc(S(=O)(=O)c2nc(-c3ccccc3F)oc2NCc2ccccc2)cc1 | . | . | -5%[46.1 µM] | 36%[activator] | -2.2% | 0% | -11%[46.1 µM] | .
COc1ccc(Cc2nc(C(=O)Nc3ccc(OC)cc3)cs2)cc1 | -22% | -24% | ? | -10% | 2.2% | 2% | -28% | -21%
Cc1nnc(SCC(=O)N2CCOCC2)n1C | 12% | 0% | 17% | -12% | 4.9% | -3% | 1% | -2%
CCCOc1ccccc1C(=O)N1CCC(c2nc3ccccc3s2)CC1 | . | . | -27%[46.1 µM] | 0% | -11% | 10% | -22%[46.1 µM] | .
COc1ccc(C(=O)NCC(c2ccc3c(c2)OCO3)N2CCOCC2)cc1 (stereo not given) | . | . | -25%[46.1 µM] | -10% | 0.8% | -1% | . | .
C#CC[N+](C)(C)CCCCCCCCCCCC | ? | -53% | ? | 22µM* | -1.7% | 2% | ? | -36%
CC(Sc1nc(N)cc(=O)[nH]1)C(=O)NC1CCCCC1 (stereo not given) | 20% | 10% | 14% | 0% | 0.9% | -4% | 7% | -1%
COc1cccc(OCC(=O)NNC(=O)c2ccc3ccccc3c2O)c1 | 5% | -9% | . | -3% | . | . | . | 8%
CCc1cccc2c(C(=O)COC(=O)/C=C/c3ccccc3OC)c[nH]c12 | 5% | 18% | 24% | 0% | -2.3% | -26% | 15% | 16%
C=C1N(c2ccc(Cl)cc2)C(=O)OC1(C)C | -8% | -14% | 24% | 15% | 1.6% | -13% | 16% | -19%
CCN1CCN(c2ncc3c(n2)CCN(CC(C)C)C3)CC1 | . | . | -7%[46.1 µM] | 1% | -0.6% | 2% | . | .
COc1ccc(CNC(=O)COC(=O)CCS(=O)(=O)c2ccc(C)cc2)cc1OC | 1% | -7% | 18% | -21% | . | . | -4% | .
CN(c1ccccc1)C(CNS(=O)(=O)c1ccccc1)c1ccccc1 (stereo not given) | . | . | -2%[46.1 µM] | 7% | -8.5% | -1% | -1%[46.1 µM] | .
CCOc1ccc(Nc2ncnc3c2c(-c2ccccc2)cn3-c2cccc(C)c2)cc1 | . | . | 5%[46.1 µM] | -18% | -0.9% | 21% | . | .
COc1ccc(CNC(=O)C2Cc3cc(S(=O)(=O)N4CCCCCC4)ccc3N2C(C)=O)cc1 (stereo not given) | . | . | 26%[46.1 µM] | -6% | 0.4% | 2% | . | .
CCOC(=O)C1=C(c2ccccc2)NC(=S)NC1c1cccc([N+](=O)[O-])c1 (stereo not given) | -6% | 9% | -17% | -19% | -5.9% | 3% | 1% | 17%
CCN(CC(=O)NCc1ccc(Cl)cc1)C(=O)/C=C/c1ccc(Cl)c([N+](=O)[O-])c1 | -5% | -3% | -2% | -7% | . | . | -14% | 14%
CC(=O)Nc1ccc(NC(=O)C2CC(=O)N(Cc3ccccc3)C2)cc1 (stereo not given) | -5% | -1% | 14%[46.1 µM] | 3% | . | . | 3%[46.1 µM] | .

Rows were taken by chance; 4.6% or so of the library scored in one or more.
